eIF4H FP inh: human eIF4H binding inhibitors, primary screen, translation initiation inhibitor project, biochemical, uHTS, fluorescence polarization | 290,000 tested, 0.94% active | inhibition, % at 35 µM | eIF4H fluorescence polarization binding assay;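 active means 50% or more with normal probe brightness, or confirmed in later tests; about a fifth of its hits are not listed in these tables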;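 further: calls also rest on retests at 20 µM and on dose response follow-up; 0% = protein and probe with vehicle and 100% = probe without protein; strong numbers were not always called active; many hits fall short of the cut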
Env fusion inh: inhibitors of HIV-1 Env-driven cell-cell fusion, primary screen, HeLa-JRFL effector, CEM21 target cells, luciferase. AID 651610, 2012. 360,000 tested, 1.1% active. inhibition, % at 12.3 µM;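 active means mean replicate inhibition score of at least 50 and every replicate individually at or above 50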;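 further: 0% = plate neutral controls and 100% = maraviroc near 300 nM; one replicate is shown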
Rce1 inhib: yeast Rce1p protease inhibitors, primary screen, biochemical, fluorescence, cell-free homogeneous; yeast membranes, quenched prenylated peptide cleavage fluorescence; AID 2563, 2010; 290,000 tested, 0.27% active; calls only;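 active means fall in fluorescence gain of 50% or more versus controls, with final raw signal at or below 3038400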;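 further: plate controls were neutral control wells for no effect and wells lacking membranes for full effect; tested at 10 µM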
Yeast UUG start: modulators of yeast start codon fidelity, primary screen, whole organism, S. cerevisiae, single point, plate reader | activity score, % at 18.7 µM | S. cerevisiae UUG-firefly luciferase reporter, luminescence/redox ratio | 350,000 tested, 0.13% active | AID 602363, 2012;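 active means replicate mean at a twofold rise or more, about +100% in these data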;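 further: firefly luciferase made from a UUG start codon reports start codon fidelity; reporter light over untreated wells divided by growth signal over untreated wells; some hits fall short of that in this replicate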
CSC inhib: cancer stem cell viability inhibitors, primary screen, luminescence; 300,000 tested, 1.1% active; inhibition, % at 7.5 µM; AID 2717, 2010; cancer stem cell-like cells viability;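 active means mean at 75% or more and at least half the replicates too; tested in HMLE shEcad cells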;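 further: 0% = median of negative and 100% = median of positive control wells; the first replicate is given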
PABP FP inh: PABP poly(A) RNA binding inhibitors, primary screen, biochemical, fluorescence polarization, uHTS; AID 2014, 2009; inhibition, % at 35 µM; Polyadenylate-binding protein 1 (Homo sapiens), P11940; 290,000 tested, 1% active;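 active means 50% or more with normal probe brightness, or confirmed in later tests; about a fifth of its hits are not listed in these tables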;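 further: calls also rest on retests at 20 µM and on dose response follow-up; controls were probe without protein and protein plus probe with vehicle; some compounds called inactive have numbers as strong as hits; many hits fall short of the cut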
Target sequence (P11940 whole entry, looked up): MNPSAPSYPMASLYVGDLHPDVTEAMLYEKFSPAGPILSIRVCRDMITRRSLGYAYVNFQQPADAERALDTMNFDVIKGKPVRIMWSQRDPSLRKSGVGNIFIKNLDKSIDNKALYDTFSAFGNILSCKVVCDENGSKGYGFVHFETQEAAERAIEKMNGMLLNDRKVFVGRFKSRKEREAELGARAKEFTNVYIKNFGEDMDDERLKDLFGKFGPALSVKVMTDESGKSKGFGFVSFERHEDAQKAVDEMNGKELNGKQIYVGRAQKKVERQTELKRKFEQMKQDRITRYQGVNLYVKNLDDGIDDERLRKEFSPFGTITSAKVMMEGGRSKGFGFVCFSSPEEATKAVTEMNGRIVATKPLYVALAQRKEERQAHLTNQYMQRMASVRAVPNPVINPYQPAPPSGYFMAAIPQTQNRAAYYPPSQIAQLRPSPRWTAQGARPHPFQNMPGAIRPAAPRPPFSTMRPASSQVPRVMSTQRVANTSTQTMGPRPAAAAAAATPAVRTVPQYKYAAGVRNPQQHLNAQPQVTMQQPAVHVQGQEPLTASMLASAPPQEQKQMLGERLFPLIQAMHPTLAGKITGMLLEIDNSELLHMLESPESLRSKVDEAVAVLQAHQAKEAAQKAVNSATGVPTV
MT1-MMP act inh: blockers of MT1-MMP proenzyme processing, primary screen, HT1080 RFP-PRO-GFP cells, GFP/RFP fluorescence; GFP/RFP ratio change, % at 20 µM; GFP/RFP ratio fluorescence, overnight; percent of plate control window, DMSO zero; 360,000 tested, 0.061% active; Matrix metalloproteinase-14 (Homo sapiens), P50281; AID 651647, 2012;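 active means GFP/RFP ratio change of at least 30% with cell ATP level not reduced by more than half and red fluorescence within 50% of control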; further: strong numbers were not always called active
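Test system: HT1080 cells expressing an RFP-PRO-GFP fluorescent reporter construct / Compound dosing: single-point 20 µM compound, 1% DMSO / Schedule: cells overnight before dosing, compound overnight, 37 °C, 5% CO2 / Evaluation: GFP/RFP fluorescence ratio / Control set: DMSO and RFP-L50D-GFP cell wells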
eIF4H FP inh retest: further read-out of eIF4H FP inh, marked with its call; inhibition, %; compound at 20 µM; confirmation average;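 mean of two retest wells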
PABP FP inh retest: recorded beside PABP FP inh, whose call it bears; inhibition, %; compound at 20 µM; confirmation repeats;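 mean of two retest wells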
MT1-MMP act inh RFP: second read-out of MT1-MMP act inh, no call of its own (marks repeat the call); RFP signal change, %; measured here: RFP expression control read;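 0 = vehicle wells; hits needed this value within 50% of zero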
Numbers without * were called inactive; i = inactive; nt = not tested or not shown; & = joins results of further samples. Some of the compounds tested, so the mix of outcomes need not match the whole.

SMILES	eIF4H FP inh	Env fusion inh	Rce1 inhib	Yeast UUG start	CSC inhib	PABP FP inh	MT1-MMP act inh	MT1-MMP act inh RFP	others
COc1ccc(S(=O)(=O)N(CC(=O)O)Cc2ccccc2)cc1OC	3	-4	i	nt	-3	5	0	9
CCCC1(c2ccccc2)NC(=O)N(CC(=O)Nc2ccccc2C(F)(F)F)C1=O (stereo not given)	-12	-36	i	9	-12	-4	-1	-2
CCCCNC(=O)c1onc(CCl)c1C(=O)OC	1	-9	i	2	-8	-8	0	5
O=C(c1ccc2ccccc2c1)N1CCCC1	57	7	i	-10	7	8	-2	3	eIF4H FP inh retest=37;PABP FP inh retest=22
O=C(c1ccco1)N1CCN(C(c2ccccc2Cl)c2nnnn2Cc2cccs2)CC1 (stereo not given)	-6	nt	i	-4	7	-4	-17	-10
CCCN(CC(=O)Nc1ccc(C(N)=O)cc1)CC(=O)Nc1cc(Cl)ccc1Cl	-8	27	i	-7	2	-4	-1	3
CCN(CC)CC(=O)Nc1nn(-c2ccccc2)nc1C(N)=O	0	-53	i	-10	-7	3	0	-2
COc1cc(CC(=O)Nc2nc(-c3ccccc3)c(C(C)=O)s2)cc(OC)c1OC	7	14	i	-10	-2	-2	22	-10
Cc1ccc(S(=O)(=O)CCN2CCN(c3ccccc3)CC2)cc1	-3	-26	i	2	nt	0	-2	5
O=C1C(=O)N(CCN2CCOCC2)C(c2cccc(Cl)c2)/C1=C(\O)c1ccc2c(c1)OCCO2 (stereo not given)	2	1	i	-21	-12	22	-1	2
CN(Cc1ccccc1)c1ccc(C(CC(N)=O)NC(=O)Cc2cccc3ccccc23)cc1[N+](=O)[O-] (stereo not given)	-8	-11	i	-11	2	8	1	-1
Cc1nn(-c2ccccc2)c2sc(C(=O)OCC(=O)N3CCCCC3)cc12	7	nt	i	-16	-8	-6	-3	-2
COc1cc(COC(=O)Oc2ccc(CNC(C)=O)cc2OC)c([N+](=O)[O-])cc1OC	nt	1	i	10	-14	nt	1	0
COC(=O)Cc1c(C)[nH]n(-c2cc(Cl)cc(Cl)c2)c1=O	1	6	i	nt	-11	-6	-3	-6
COc1ccc(Cl)cc1NC(=O)CN(C)C(=O)CCC(=O)c1cc(C)sc1C	nt	4	i	nt	1	nt	2	-3
Cc1ccc(CNS(=O)(=O)NCc2ccc(Cl)cc2)cc1	4	4	i	nt	-9	-6	-2	8
CCCN1C(=O)/C(=C2/C=Cc3ccccc3N2CC)SC1=S	-9	-6	i	-24	20	4	45*	-1.7*
CCOc1ccc(OCCC(=O)OCC(=O)Nc2ccc3c(c2)OCCO3)cc1	nt	nt	i	nt	-10	nt	4	1
Cn1c(CNC(=O)c2ccco2)nnc1SCC(=O)c1ccccc1	-7	6	i	-18	-12	-5	1	4
Cc1ccc(S(=O)(=O)N(C)C[C@@H]2OCc3cn(nn3)CCCC(=O)N([C@@H](C)CO)C[C@H]2C)cc1	nt	22	nt	-3&-1	nt	nt	5	6
O=C(Nc1nnc(COc2ccc(F)cc2)s1)c1cccs1	-5	nt	i	-15	38	14	5	-2
COc1cc(C(=O)/C=C/Nc2ccc(NC(C)=O)cc2)cc(OC)c1OC	-4	nt	i	nt	-4	4	5	3
COc1ccc(C(=O)NCC(c2cccnc2)N2CCN(c3ccccc3OC)CC2)cc1OC (stereo not given)	8	21	i	-9	-10	7	6	-1
CCOc1ccc(NC(=O)c2ccc(-c3csc(C)n3)cc2)cc1	7	4	nt	-3	-2	1	3	-13
COc1cccc(CNC(=O)c2cc3c(c(-c4cccc(-c5cccc(C#N)c5)c4)n2)[C@H](CCO)N(S(=O)C(C)(C)C)C3)c1 (stereo not given in full)	nt	29	nt	-14	nt	nt	0	0
FC(F)Sc1ccc(NC(=S)NC2CCCCC2)cc1	-2	-65	i	-38	14	-12	2	-6
S=C1NC(c2ccccc2)N2C(=S)NC(c3ccccc3)N12 (stereo not given)	0	-21	i	-17	-1	11	7	3
Cn1c(=O)c(=O)n(C)c2cc(N3CCCCC3)c(NS(=O)(=O)c3ccc([N+](=O)[O-])cc3)cc21	10	-3	i	0	-10	15	1	0
O=C(Nc1cccc([N+](=O)[O-])c1)Nc1cnccn1	-5	-20	i	-14	-9	0	-10	-7
Cc1cc(NC(=O)CC2CCCC2)n(-c2nc3ccccc3[nH]2)n1	2	nt	i	-18	31	-7	-8	-11
COc1ccc(CCNc2ncnc3c2c(C)c(C)n3CCCN(C)C)cc1OC	58	19	i	-1	-13	43	1	2	eIF4H FP inh retest=-3;PABP FP inh retest=31
CCN(CC)C(=O)Cn1cc(C(=O)C(=O)N2CCc3ccccc32)c2ccccc21	5	-23	i	nt	9	58	-1	-3	eIF4H FP inh retest=0;PABP FP inh retest=11
Cc1ccc(NC(=O)c2noc3c2CC(C(C)(C)C)CC3)cc1 (stereo not given)	-7	-34	i	-19	-8	-6	-2	3
O=C(N/N=C/c1ccncc1)c1nc2ccccc2c(=O)[nH]1	-9	-12	i	nt	-3	-10	1	-3
O=C1C=C(Nc2ccc(F)cc2)c2ccccc2C1=O	nt	40	nt	-7	112*	nt	4	-3
CCOC(=O)c1ccc(N2CCN(c3ccccc3F)CC2)c(NC(=O)Nc2ccccc2)c1	-3	nt	i	-13	-5	-1	-1	-11
COc1cccc2sc(=NC(=O)CS(=O)(=O)c3ccccc3)n(C)c12	nt	-27	nt	-45	nt	nt	1	-1
O=C(Nc1ccccc1N1CCCC1)C1CCN(S(=O)(=O)c2cccc(C(F)(F)F)c2)CC1	nt	9	i	19	-9	nt	-8	-8
COc1ccc(NC(=O)c2c(NC(=O)CNCC(C)C)sc3c2CCC3)c(OC)c1	0	-13	i	nt	-5	-8	4	1
NS(=O)(=O)c1ccc(NC(=O)CN2CCCc3ccccc32)cc1	45	4	i	nt	-5	12	-43	4
O=c1c(F)cn(C2CCCO2)c(=O)n1Cc1ccccc1Cl (stereo not given)	1	nt	i	-8	nt	-8	-2	3
CCOC(=O)C1CCCN(Cc2cn[nH]c2-c2ccc(F)cc2F)C1 (stereo not given)	-5	-1	i	nt	3	-10	2	4
c1ccc(-c2nn3c(C4CCCCC4)nnc3s2)cc1	1	10	i	-24	3	-6	-1	1
O=C(NCc1ccccc1)c1ccc(CS(=O)(=O)c2ccccc2)o1	1	34	i	-13	-2	0	3	0
CC(C)(C)Cc1c(-c2ccc(C#N)cc2)nc2ccc(Cl)cn12	nt	-10	nt	165*	nt	nt	8	15
Cc1ccc(-n2nc3c(=O)n(CC(=O)NCCc4ccc(Cl)cc4)nc(C)c3c2C)cc1	-19	4	i	-20	-2	-10	4	-12
CC(=O)Cc1nsc(NC(=O)c2ccc(COc3cccc(C)c3)o2)n1	-9	12	i	-10	nt	0	-2	-1
Cc1ccc(-c2nc(CS(=O)CC(=O)NCCN3CCCC3)c(C)o2)cc1 (stereo not given)	7	-21	i	-10	-15	11	2	4
CS(=O)(=O)N1CCN(C(=O)Cc2cccs2)CC1	3	nt	i	nt	-6	3	1	6
CCN(CC(=O)N1CCC(C)CC1)S(=O)(=O)c1ccc(C)cc1	2	-4	i	-10	-4	9	-1	3
Additional entries.
SMILES	eIF4H FP inh	Env fusion inh	Rce1 inhib	Yeast UUG start	CSC inhib	PABP FP inh	MT1-MMP act inh	MT1-MMP act inh RFP	others
Cc1cccc(C)c1NC(=O)C(NC=O)c1ccccc1Cl (stereo not given)	-11	-13	i	-15	nt	-5	7	8
CSc1ncccc1C(=O)NCC(c1cccs1)N1CCOCC1 (stereo not given)	nt	-36	i	nt	-5	nt	1	-6
NS(=O)(=O)c1ccc(N/N=C/c2ccc(O)cc2O)c([N+](=O)[O-])c1	12	8	i	-4	4	3	15	-3
COCCNC(=O)/C(C#N)=C/c1cccs1	-6	-22	i	-13	-4	-3	-11	2
COC(=O)c1cc(COc2ccc3oc(C)c(C(=O)OC)c3c2)c(C)o1	-18	nt	nt	-21	8	-5	1	-4
O=c1c2ccccc2nnn1Cc1ccc(F)cc1	11	18	i	-12	-3	2	-1	4
CCc1ccc(-c2nnn(CCC(=O)OC)n2)cc1	-6	65*	i	-11	-2	1	5	4
Cc1cccc(C)c1NC(=O)CCS(=O)(=O)c1ccc(Br)cc1	-11	-57	i	-7	-2	-7	-2	-3
O=C(COc1ccc([N+](=O)[O-])cc1)Nc1cccnc1	5	-7	i	nt	-3	35	2	6
Cc1ccc2nc(-c3cccc(Br)c3)c(Cc3ccccn3)n2c1	nt	-25	nt	-4	nt	nt	-5	5

Among those listed so far, 5 contain a furan ring, fused or not.
SMILES	eIF4H FP inh	Env fusion inh	Rce1 inhib	Yeast UUG start	CSC inhib	PABP FP inh	MT1-MMP act inh	MT1-MMP act inh RFP	others
O=C(c1ccco1)N1CCN(C(c2ccccc2Cl)c2nnnn2Cc2cccs2)CC1 (stereo not given)	-6	nt	i	-4	7	-4	-17	-10
Cn1c(CNC(=O)c2ccco2)nnc1SCC(=O)c1ccccc1	-7	6	i	-18	-12	-5	1	4
O=C(NCc1ccccc1)c1ccc(CS(=O)(=O)c2ccccc2)o1	1	34	i	-13	-2	0	3	0
CC(=O)Cc1nsc(NC(=O)c2ccc(COc3cccc(C)c3)o2)n1	-9	12	i	-10	nt	0	-2	-1
COC(=O)c1cc(COc2ccc3oc(C)c(C(=O)OC)c3c2)c(C)o1	-18	nt	nt	-21	8	-5	1	-4

Next section:
SMILES	eIF4H FP inh	Env fusion inh	Rce1 inhib	Yeast UUG start	CSC inhib	PABP FP inh	MT1-MMP act inh	MT1-MMP act inh RFP	others
CC(C)CC(NS(=O)(=O)c1ccc2c(c1)oc(=O)n2C)C(=O)NC1CCCc2ccccc21 (stereo not given)	8	58*	i	-14	-13	-2	-5	2
COc1ccc2[nH]c(=O)c(CN(Cc3cccs3)Cc3nnnn3C(C)(C)C)cc2c1	-3	nt	i	5	-8	-4	-3	-2
N#Cc1c(C(F)(F)F)cc(-c2cccs2)nc1SCc1cccnc1	-10	37	i	-22	nt	-12	-10	-16
CC(C)Cc1nnc(NC(=O)c2ccc3c(c2)NC(=O)C(C)S3)s1 (stereo not given)	nt	-15	i	nt	2	nt	0	-5
O=C(CC1SCCNC1=O)NCc1ccccc1 (stereo not given)	nt	30	nt	-19	nt	nt	-2	1
COc1ccc(OCC(O)CNCCNc2nccc(C(F)(F)F)n2)cc1 (stereo not given)	-7	-2	i	37	-10	4	-3	3
O=C(c1ccco1)N1CCN(C2CN(Cc3ccc(F)cc3)S(=O)(=O)C2)CC1 (stereo not given)	nt	-12	nt	7	nt	nt	6	6
COC(=O)C1CSc2[nH]c(=O)sc2C1c1ccccc1 (stereo not given)	122	nt	i	-20	-16	95	-103	7	eIF4H FP inh retest=2;PABP FP inh retest=0
Cc1ccc(N(C(=O)c2ccco2)C(C(=O)NC2CCCC2)c2cccnc2)cc1C (stereo not given)	7	-9	i	-7	-3	2	3	3
COc1ccc(CNC(=O)COC(=O)C(CCSC)N2C(=O)c3ccccc3C2=O)cc1 (stereo not given)	nt	nt	nt	-4	-7	nt	-3	4
Cc1cc(/C=C(\C#N)C(=O)Nc2ccc(F)cc2)c(C)n1-c1ccc(N2CCOCC2)c([N+](=O)[O-])c1	4	85*	i	-11	13	10	4	-17
CN=C(c1ccco1)n1c(=S)nc(-c2ccco2)n(C)c1=S	26	-72	i	-18	nt	52	-4	4	eIF4H FP inh retest=28;PABP FP inh retest=28
O=C(/C=C/c1cc([N+](=O)[O-])ccc1OC(F)F)NCc1ccc(F)cc1	2	nt	i	6	-7	4	5	3

Bioassay records from PubChem.
